Measles inh – inhibitors of measles virus growth in cells, primary screen, measles RdRp inhibitor project, cell-based, single point, HTS; actives 0.1% (n = 33,000); infected Vero cells, GFP fluorescence, 64 h; hits give low values; z-score (concentration not given with the values);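 active means z-score under -3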;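 further: score is relative to mean and SD of the compound wells of a plate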
Starred values were filed as active, the others as inactive. An excerpt (hit frequency here may not be typical).

SMILES	Measles inh
CCSc1nnc(N2C(=O)c3ccc(Oc4ccc([N+](=O)[O-])cc4)cc3C2=O)s1	0.62
CCc1ccc(NC(=O)c2ccc(F)c(S(=O)(=O)N3CCCC3)c2)cc1	0.57
COc1ccc(N2C(=O)C(N3C(=O)c4ccc([N+](=O)[O-])cc4C3=O)C2c2cc(OC)ccc2OC)cc1 (stereo unspecified)	0.3
Cc1ccc(N2C(=O)N(C(=O)c3cccs3)C3CC2(C)Oc2ccc(Cl)cc23)cc1 (stereo unspecified)	1.27
Cc1ccc(NC(=O)CSc2nc3nc(C)cc(C)n3n2)c(C)c1	-0.44
CCOC(=O)c1cnc2cc(Cl)c(OC)cc2c1Nc1ccc(Br)cc1C	-0.39
CCCCN(CC)C(=O)c1sc2ncn(CC(=O)N3CCOCC3)c(=O)c2c1C	-0.56
O=C(O)c1cnc2ccc(S(=O)(=O)N3CCOCC3)cc2c1Cl	0.77
CCOC(=O)CCC(=O)Nc1ccc(S(=O)(=O)N2CCCCC2)cc1	0.13
Cn1c(=O)c2c(SCC(=O)N3CCc4ccccc43)nc(-c3ccco3)nc2n(C)c1=O	1.02
CCCN(CCC)Cc1c(O)ccc2c(=O)c(Oc3ccc(C)cc3)c(C(F)(F)F)oc12	-0.42
Cc1ccc(/C(O)=C2\C(=O)C(=O)N(CCCC(=O)O)C2c2ccccc2Cl)cc1 (stereo unspecified)	-0.6
COc1ccc(C(=O)COC(=O)c2ccc3c(c2)C(=O)N(c2cccc(Cl)c2)C3=O)cc1[N+](=O)[O-]	0.66
CSc1nnc2c(n1)OC(c1ccc(OCC(=O)O)cc1)Nc1ccccc1-2 (stereo unspecified)	-1.2
COc1ccc(NC(=O)c2cc(S(=O)(=O)N3CCCC3)ccc2F)cc1	-1.67
COc1ccc(OC)c(NC(=O)c2n[nH]c(=O)c3ccccc23)c1	-0.06
Cc1ccc2nc(Nc3nc4c(c(=O)[nH]3)CCCC4)nc(C)c2c1	1.98
COCCCNC(=O)C1CCCN(c2nc3ccccc3o2)C1 (stereo unspecified)	2.25
COc1cccc2cc(CC(=O)c3ccc(C)cc3C)c(=O)oc12	0.29
CC(C)NC(=O)C1CC(=O)N(C(C)c2ccccc2)C1 (stereo unspecified)	0

In the list so far, 2 contain an NH in an aromatic ring:
SMILES	Measles inh
COc1ccc(OC)c(NC(=O)c2n[nH]c(=O)c3ccccc23)c1	-0.06
Cc1ccc2nc(Nc3nc4c(c(=O)[nH]3)CCCC4)nc(C)c2c1	1.98

Next compounds:
SMILES	Measles inh
COC(=O)c1sc2ccccc2c1NC(=O)c1ccc(S(=O)(=O)N2CCC(C)CC2)cc1	-0.14
O=C(CC12CC3CC(CC(C3)C1)C2)OCCNC(=O)c1cccnc1	0.67
CC(C)NC(=O)c1cc2nc(-c3ccc(Cl)cc3)cc(C(F)(F)F)n2n1	-0.39
CC1CCN(c2ncnc3nc[nH]c23)CC1	0.41
COc1cc(NC(=O)c2ccc(Cl)c([N+](=O)[O-])c2)c(Cl)cc1C(=O)O	2.06
CCOC(=O)c1c(NC(=O)COc2ccccc2Br)sc(C(C)=O)c1C	-0.48
O=C(c1ccc2ccccc2c1)N1CCN(c2ccc([N+](=O)[O-])cc2)CC1	0.36
c1cc2c(cc1N1COc3cc4c(cc3C1)OCO4)OCCO2	0.06
O=C1CN(C(=O)c2ccccc2)c2ccccc2N1	-0.19
Cc1ccc(N2CCN(C(=O)C3CCN(S(=O)(=O)c4cccnc4)CC3)CC2C)cc1 (stereo unspecified)	0.9
CC1CCN(C(=O)c2c(NC(=O)c3ccco3)sc3c2CCC(C(C)(C)C)C3)CC1 (stereo unspecified)	-0.25
O=C(Nc1cccc(-c2nc3ccccc3c(=O)o2)c1)c1ccc(I)cc1	1.94
COCCN1Cc2cccc(C(=O)Nc3ccc(OC)cc3OC)c2C1=O	0.02
Cc1cccc(-n2cc(-c3ccccc3)nc2SCC(=O)NCCc2ccccc2)c1	0.06
CCc1ccc(NC(=O)c2noc3c2CCC3)cc1	0.74
O=C1NCC(COCc2ccco2)O1 (stereo unspecified)	0.24
CCOC(=O)c1sc2ncnc(N3CCN(c4ccc([N+](=O)[O-])cc4)CC3)c2c1C	1.01
COc1ccc(N=Cc2cccc([N+](=O)[O-])c2O)cc1	0.32
CCC(Cc1ccccc1)NC(=O)c1oc(=O)c2ccccc2c1-c1ccccc1 (stereo unspecified)	1.03
Cc1nc(NCCCN(C)C)c2sc3nc4c(cc3c2n1)COC(C)(C)C4	0.84
Cc1cccc(NC(=O)C2C3C=CC4(O3)C2C(=O)N(C2CC2)C4C(=O)NC2CCCC(C)C2C)c1 (stereo unspecified)	-0.17
CCCCOC(=O)C1=C(C)Nc2ncnn2C1c1ccccc1F (stereo unspecified)	-0.46
O=C1CSC(c2ccc(Br)cc2)N1c1cccc(C(F)(F)F)c1 (stereo unspecified)	-0.27
CCOC(=O)CNS(=O)(=O)c1ccc2[nH]cc(C(=O)O)c(=O)c2c1	0.99
COc1ccc2nc(NC(=O)c3ccc(C#N)cc3)sc2c1	-0.24
Cc1nc2ccc(C(=O)NC(C)CCc3ccccc3)cc2nc1C (stereo unspecified)	-1.25
CCOC(=O)c1c(N2C(=O)C3CC(C)=C(C)CC3C2=O)sc(C)c1C (stereo unspecified)	-0.66
O=C(Nc1cccc(F)c1)c1sc(=S)n2c1[nH]c(=O)c1ccccc12	0.51
Cc1cccc(C)c1NC(=O)CSc1ncnc2sc(C)c(C)c12	0.79
Cc1ccc(C)c(Oc2cc(F)nc(N)n2)c1	0.05
Cc1cc(C)c(NC(=O)c2cc(S(=O)(=O)N3CCN(c4ccccc4)CC3)ccc2F)c(C)c1	-0.59
COc1cc(N2C(=O)c3ccccc3C2=O)c(OC)cc1Cl	0.41
COc1ccc(Nc2ncc(C(=O)Nc3cc(Cl)ccc3OC)c3ccccc23)cc1	0.16
Cc1c(C)n(C(=O)CSc2nccn2C)c2ccccc12	-0.42
CCOc1ccc(CN2C(=O)CCC2(C)C(=O)NCC2CCCO2)cc1 (stereo unspecified)	0.1
CCCN(CCC)S(=O)(=O)c1ccc(C(=O)N=c2sc3cc([N+](=O)[O-])ccc3n2C)cc1	0.34
CCOc1ccc(N=Cc2ccc(N(C)C)cc2)cc1	0.24
C=CCN1C(=O)c2ccccc2Sc2ccc(C(=O)NCCc3ccc(C)cc3)cc21	-1.49
Cc1nn(C)c(C)c1N1C(=O)c2cccc3cc([N+](=O)[O-])cc(c23)C1=O	4.19
CCOCCSc1nc2c(c(=O)[nH]1)C(C1CCCC1)Cc1ccccc1-2 (stereo unspecified)	-1.57
CC(C)CNc1c(N)c(=O)oc2ccccc12	0.07
COCCCNC(=O)Cn1c(=O)n(-c2ccc(C)c(C)c2)c(=O)c2c3c(sc21)CCCCC3	-0.69
COc1ccc(NC(=O)CSc2c[nH]c3ccccc23)cc1	1.69
COc1ccc(C(=O)Nc2cccc(NC(=O)c3cccc(Cl)c3)c2)cc1[N+](=O)[O-]	-0.27
CCN(CC)S(=O)(=O)c1ccc(C(=O)Nc2nc3ccc4nc(SC)sc4c3s2)cc1	0.08
COc1cccc(CNC(=O)CCCn2c(=S)[nH]c3cc4c(cc3c2=O)OCO4)c1	0.29
COc1ccc2ccc(OC)c(C3NC(=S)NC(C)=C3C(N)=O)c2c1 (stereo unspecified)	-0.03
O=C1CC(C(=O)Nc2ccc([N+](=O)[O-])cc2O)C2(CCCCC2)O1 (stereo unspecified)	-1.43
O=c1c2c3c(sc2ncn1Cc1ccc(F)cc1)CCC3	1.06
O=C(Nc1ccccc1Br)c1cc(S(=O)(=O)N2CCc3ccccc32)ccc1F	1.7
Next results follow:
SMILES	Measles inh
COc1cc(C(=O)N2CCC(N3CCCCCC3)CC2)cc(OC)c1OC	-0.53
COc1ccc(C2=NN(C(=O)CSc3nc4ccccc4s3)C(c3ccc(F)cc3)C2)cc1 (stereo unspecified)	0.14
CCOC(=O)C1=NN(C(=O)c2cccc([N+](=O)[O-])c2)C(O)(C(C)(C)C)C1 (stereo unspecified)	-0.19
O=C1OC/C(=C(\O)c2ccccc2)C1=O	-0.17
O=C(Nc1ncc(S(=O)(=O)c2ccc([N+](=O)[O-])cc2)s1)c1ccc(-c2ccccc2)cc1	2.01
COc1cccc(C2=NC(c3ccccc3OC)NC(c3ccccc3O)C2)c1 (stereo unspecified)	0.56
CN(C)C=Nc1nc2ccc3c(c2s1)CCCC3	-0.29
NC1=NC2CS(=O)(=O)CC2S1 (stereo unspecified)	-0.85
CC1=CC(C)(C)N2C(=O)C(=O)c3cc(OC(=O)c4ccc([N+](=O)[O-])cc4)cc1c32	0.96
CCOC(=O)c1ccc(CN(Cc2ccc(C)cc2)S(=O)(=O)c2cccc(C(F)(F)F)c2)cc1	-0.46
c1ccc(-c2cnc(-c3ccncc3)nn2)cc1	0.41
CCc1ccccc1Nc1nc(-c2sc(NC(C)=O)nc2C)cs1	-0.35
CC(=O)N1CCc2[nH]c3ccccc3c2C1	0.15
CCOC(=O)C1=CN(c2ccc(C)cc2)C=C(C(=O)OCC)C1c1cccc(OC)c1	0.57
COc1cc(C2C3=C(CCCC3=O)OC3=C2C(=O)CCC3)cc(Cl)c1OCC(=O)O	0.36
COc1ccccc1C1C2=C(CCCC2=O)Nc2nc3ccccc3n21 (stereo unspecified)	0.12
Cc1cc(=O)n2[nH]c([N+](=O)[O-])nc2n1	0.42
COc1ccc(Cl)cc1N1C(=O)CSC1c1ccccn1 (stereo unspecified)	0.71
Oc1ccc2ccccc2c1CNc1ccccn1	-0.69
CCC1OC(c2ccc([N+](=O)[O-])cc2)=Nc2ccccc21 (stereo unspecified)	0
Cc1ccc(N2C(=O)N(c3ccccc3C)C3CS(=O)(=O)CC32)cc1 (stereo unspecified)	-0.26
CC(=O)c1ccc(NC(=O)C2CC(=O)N(c3ccc(C)cc3)C2)cc1 (stereo unspecified)	-1.28
CC(C)(C)C1CCc2c(sc3c2C(=O)NC(c2ccc(O)cc2O)N3)C1 (stereo unspecified)	-1.01
COc1ccc(-n2nc(C(=O)NCC(=O)N3CCN(C)CC3)c3ccccc3c2=O)cc1OC	-0.54
O=C(CCn1c(SCc2cccc(F)c2)nc2cc3c(cc2c1=O)OCO3)NCc1ccc2c(c1)OCO2	-1.19
N#Cc1cccc(NC(=O)Cc2c(C(=O)O)[nH]c3ccc(Cl)cc23)c1	0.07
COc1ccc2nc(NC(=O)CNC(=O)C3CCCCC3)sc2c1	-0.37
O=C(O)C1COc2ccccc2O1 (stereo unspecified)	1.47
CC(C(=O)Nc1nc(-c2ccccc2)cs1)N1C(=O)C2C3C=CC(C3)C2C1=O (stereo unspecified)	-0.39
COc1ccc(Br)cc1CN1C(=O)CCC1(C)C(=O)NC1CCC(C)CC1 (stereo unspecified)	1.12
COc1ccc([N+](=O)[O-])cc1C1NN=C(c2ccccc2)S1 (stereo unspecified)	-0.69
COc1cccc(C2Nc3ccccc3-c3nnc(SC)nc3O2)c1OCC(=O)O (stereo unspecified)	-1.8
CCC(C)NC(=O)C1(C)CCC(=O)N1CCN1CCCCCC1 (stereo unspecified)	-0.27
CC(C)N1CC2(c3ccccc31)N1CC3(C)CN2CC(C)(C1)C3=O (stereo unspecified)	-0.06
COC(=O)c1sc2ccccc2c1NC(=O)c1ccc(C)cc1	-0.31
COc1ccc(Nc2nnc(-c3cc4c(ccc5ccccc54)oc3=O)s2)cc1	-0.08
Cc1cc([N+](=O)[O-])nn1CCCC(=O)N1CCN(c2ccc(F)cc2)CC1	-0.72
CCOC(=O)c1cnc2ccc(C)cc2c1NCCc1ccc(OC)c(OC)c1	1.98
CCOC(=O)COc1ccc(C=Nc2sc3c(c2C#N)CCCC3)cc1OC	1.92
CCN1C(=O)c2cccc3c(NC(=O)C45CC6CC(CC(C6)C4)C5)ccc1c23	-0.73
CCOC(=O)c1ccc(NC(=O)c2ccc(Br)c(S(=O)(=O)N3CCCCC3)c2)cc1	0.21
O=C(O)C1CCN(S(=O)(=O)c2ccc(Br)cc2)CC1	0.13
CC(C)Cn1cc(C(=O)NCCCOC(C)C)c2c3ccccc3n(C)c2c1=O	-0.52
O=C(O)c1cccc(NC2=CC(=NS(=O)(=O)c3cccs3)c3ccccc3C2=O)c1	-0.84
Cc1cccc(NC(=O)c2cc3c(=O)n4cccc(C)c4nc3s2)c1	-1.13
Cn1c(SCc2ccc(F)cc2)nc2c([nH]c3ccccc32)c1=O	0.64
COc1ccc(C2C3=C(CCCC3=O)Nc3nc(C(=O)OC(C)C)nn32)cc1 (stereo unspecified)	-0.09
CCCN(C(=O)Cc1c(C(=O)O)[nH]c2ccccc12)c1ccc(CC)cc1	-0.36
O=c1c2cc3ccccc3cc2[nH]c(=S)n1C1CC1	2.07
COc1ccc(C)cc1NC(=O)c1sc2ncnc(N3CCCCC3C)c2c1C (stereo unspecified)	-0.26
O=C(Nc1ccc(-c2csc(-c3ccccc3)n2)cc1)c1ccc(Br)cc1	-0.95

By substructure, the compounds so far with fluorine.
SMILES	Measles inh
CCc1ccc(NC(=O)c2ccc(F)c(S(=O)(=O)N3CCCC3)c2)cc1	0.57
CCCN(CCC)Cc1c(O)ccc2c(=O)c(Oc3ccc(C)cc3)c(C(F)(F)F)oc12	-0.42
COc1ccc(NC(=O)c2cc(S(=O)(=O)N3CCCC3)ccc2F)cc1	-1.67
CC(C)NC(=O)c1cc2nc(-c3ccc(Cl)cc3)cc(C(F)(F)F)n2n1	-0.39
CCCCOC(=O)C1=C(C)Nc2ncnn2C1c1ccccc1F (stereo unspecified)	-0.46
O=C1CSC(c2ccc(Br)cc2)N1c1cccc(C(F)(F)F)c1 (stereo unspecified)	-0.27
O=C(Nc1cccc(F)c1)c1sc(=S)n2c1[nH]c(=O)c1ccccc12	0.51
Cc1ccc(C)c(Oc2cc(F)nc(N)n2)c1	0.05
Cc1cc(C)c(NC(=O)c2cc(S(=O)(=O)N3CCN(c4ccccc4)CC3)ccc2F)c(C)c1	-0.59
O=c1c2c3c(sc2ncn1Cc1ccc(F)cc1)CCC3	1.06
O=C(Nc1ccccc1Br)c1cc(S(=O)(=O)N2CCc3ccccc32)ccc1F	1.7
COc1ccc(C2=NN(C(=O)CSc3nc4ccccc4s3)C(c3ccc(F)cc3)C2)cc1 (stereo unspecified)	0.14
CCOC(=O)c1ccc(CN(Cc2ccc(C)cc2)S(=O)(=O)c2cccc(C(F)(F)F)c2)cc1	-0.46
O=C(CCn1c(SCc2cccc(F)c2)nc2cc3c(cc2c1=O)OCO3)NCc1ccc2c(c1)OCO2	-1.19
Cc1cc([N+](=O)[O-])nn1CCCC(=O)N1CCN(c2ccc(F)cc2)CC1	-0.72
Cn1c(SCc2ccc(F)cc2)nc2c([nH]c3ccccc32)c1=O	0.64

Compound activity: PubChem BioAssay, Emory University Molecular Libraries Screening Center
